Screens deposited in PubChem BioAssay by National Center for Advancing Translational Sciences (NCATS).
nsP2pro primary: inhibitors of chikungunya virus nsP2 protease; Potency, µM (series often up to 24.9 µM), for the others: top-dose activity change, negative = inhibition, hits mostly inhibitors; Q8JUX6; hit rate 1.1% among 31,000; FRET peptide cleavage, nsP2pro, fluorescence 1 h; AID 1964107; active means well fitted inhibition curve with a large enough effect; inconclusive means small, poorly fitted or top-dose-only effect; inactive means no such curve, though single readings can be large or run the other way; note: nearly all actives have a fitted effect of over 60% in size; a reference inhibitor and vehicle were the controls
Starred values were filed as active, the others as inactive; i = inactive; ? = inconclusive; & = joins results of further samples; [ ] = dose if it differs, or a comment. % is set by controls: 0 for no effect and ±100 for the full control effect; potency is the fitted concentration of half-maximal effect.

SMILES | nsP2pro primary
C[C@]12CCC(=O)C=C1[C@@H]1C[C@@H]1[C@H]1[C@@H]3[C@@H]4C[C@@H]4[C@@]4(CCC(=O)O4)[C@@]3(C)CC[C@@H]12 | 17%
C/C=C1/[C@H](O[C@@H]2O[C@H](CO)[C@@H](O)[C@H](O)[C@H]2O)OC=C(C(=O)OC)[C@H]1CC(=O)OCCc1ccc(O)c(O)c1 | ?
Cc1cc(-c2ccccc2)n2ncc(C(=O)Nc3ccccc3Sc3ccccc3)c2n1 | -8%
CC1=C[C@@H](CNC(=O)CCC(=O)O)[C@H](C(C)C)C[C@H]1Cc1nc2ccncc2[nH]1 | -2%[39.2 µM]
N#Cc1ccc(-c2csc(N3CCC(C(N)=O)CC3)n2)cc1 | -3%
CCOCCc1nn2c(=O)cc(COC(=O)C(CC)c3ccccc3)nc2s1 (configuration not stated) | -15%
C[C@@H]1C(=O)O[C@H]2[C@H]1CC[C@@]1(C)C(=O)C=C[C@](C)(O)[C@H]21 | ?
O=C(NC1CCCCC1)N[C@H]1CO[C@H]2[C@@H]1OC[C@@H]2n1nnnc1-c1ccc2c(c1)OCO2 | 2.8µM*
Cc1cnc(CN(C)Cc2cn(-c3ccccc3)nn2)[nH]1 | i
O=C1CCCC2=C1C(c1ncccc1Br)N=C(Nc1nc3ccccc3o1)N2 (configuration not stated) | -1%
CCc1cccc2c3c([nH]c12)C(CC)(CC(=O)O)OCC3 (configuration not stated) | -10%&2%
Cc1cc(N[S+](=O)([O-])c2ccc3c(c2)CCC(=O)N3C)ccc1F | -5%
Cc1cc(S(=O)(=O)N2CCN(C3CCN(Cc4ccccn4)C3=O)CC2)ccc1Cl (configuration not stated) | -7%
CCOc1ccc(NCc2cccn2-c2nnc(N3CCC(C(=O)NCC(C)c4ccccc4)CC3)s2)cc1 (configuration not stated) | -10%
CCNC(=O)NCCc1noc(-c2ccncc2)n1 | 4%
C[C@H](NC(=O)CCc1nc2ccccc2c(=O)[nH]1)c1ccccc1 | ?
CCOc1ccc(N2CC(NC(=O)c3ccco3)CC2=O)cc1 (configuration not stated) | -11%
CCCOc1ccc(CN(C(=O)c2nc(SC(C)C)ncc2Cl)C2CCS(=O)(=O)C2)cc1 (configuration not stated) | -18%
O=C1CCCC2=C1C(c1[nH]ncc1Cl)NC(=NCc1ccccc1)N2 (configuration not stated) | 0%
COc1cc(O)c(C(CC(=O)N2CCC(c3ccccc3)CC2)c2ccc(OC)c(OC)c2)c(OC)c1 (configuration not stated) | -1%[39.2 µM]
CC(C)CC(NS(=O)(=O)c1ccc2c(c1)oc(=O)n2C)C(=O)NCCc1ccc(Cl)cc1 (configuration not stated) | -17%
Cc1nn(C(=O)c2cccc([N+](=O)[O-])c2C)c(C)c1S(=O)(=O)N1CCOCC1 | -10%
Cn1nnnc1Sc1ncnc2scc(-c3ccc4c(c3)OCO4)c12 | i
CCOc1ccc(-n2c(C)nc3cc(C(=O)NCCC4=CCCCC4)ccc32)cc1 | 5%
CCCCOc1ccc(C(=O)Nc2ccc(F)cc2F)cc1 | -8%

Other results:
SMILES | nsP2pro primary
CCOc1ccc(CCNC(=O)c2ccc(-n3c(C)cc4c3CCC(C)C4)cc2)cc1OCC (configuration not stated) | -24%
C=Cc1ccc(Cn2c(C(=O)O)c(CNCc3cc(OC)ccc3OC)c3ccc(C)cc32)cc1 | -10%
COc1cccc(-c2nn(C)c3sc(C(=O)N4CCN(c5cccc(C)c5)C(C)C4)cc23)c1 (configuration not stated) | -13%
O=C(O)CC(CCc1ccccc1)OC1OC(CO)C(O)C(O)C1O (configuration not stated) | ?
COc1ccc(CNC(=O)c2cc3sccc3n2C)cc1 | ?
COCCN1CCCC1c1nc(C2CN(S(=O)(=O)c3cccc(OC)c3)C2)no1 (configuration not stated) | ?
O=C(O)C(=O)O | -7%
CCOC(=O)c1ccc(NC(=O)COCc2cc(-c3ccc4c(c3)OCO4)on2)cc1 | -17%
Cc1sc2ncn(CC(=O)N3CCN(c4ccc(F)cc4)CC3)c(=O)c2c1S(=O)(=O)N1CCN(c2ncccn2)CC1 | -21%
CNC(=O)c1cc(C2CC2)nc2onc(C3CCN([S+](=O)([O-])c4ccccc4)C3)c12 (configuration not stated) | 3%
Cc1cc2c(cc1C1(c3ccc(C(=O)O)cn3)CC1)C(C)(C)CCC2(C)C | -10%&-9%
COc1cc2c(cc1O)CCN[C@]21CS[C@@H]2c3c(OC(C)=O)c(C)c4c(c3[C@H](COC1=O)N1[C@@H]2[C@H]2c3c(cc(C)c(OC)c3O)C[C@@H]([C@@H]1O)N2C)OCO4 | -11%[5.1 µM]
CCn1c(C(=O)Nc2ccccc2C(=O)OC)cc2sc(Cl)cc21 | -39%
Cc1nc(C2=NC(c3ccccc3Cl)C3=C(CCCC3=O)N2)cs1 (configuration not stated) | i
O=C(C1CCCC1)N1CC2(CCCN(Cc3ccccn3)C2)Cc2ccccc21 (configuration not stated) | i
O=c1cc(-c2ccccc2)nc(SCc2nc(-c3ccc(Cl)cc3)no2)[nH]1 | -26%
CCN1CCCNCC12CCOCC2 | 1%
O=C(O)CC1(CC(=O)N[C@H]2CO[C@H]3[C@@H]2OC[C@@H]3n2nnnc2Oc2ccccc2)CCCC1 | 4%
Cc1nc(CN2CCN(c3cc(C4CC(O)C4)ncn3)CC2)cs1 (configuration not stated) | i
COc1ccc(-c2ccc3ncn(C4CC4)c(=O)c3n2)cn1 | -5%[39.2 µM]
Oc1c(I)cc(I)c2cccnc12 | ?
O=C(O)c1ccc(-c2cccc(-c3nn4c(=O)cc(N5CCNCC5)nc4s3)c2)cc1 | i
C#Cc1cccc(C(=O)N2CCC(Cc3ccc(Cl)cc3)(C(=O)OCC)CC2)c1 | -3%
CCCCN(c1ccccc1)S(=O)(=O)c1cc2c3c(c1)C(C)C(=O)N3CCC2 (configuration not stated) | -20%
COC(=O)CNC(=O)c1nc(-c2ccccc2OC)c2cnccn12 | -10%

Exported as tab-separated lines: 2 of the compounds above.
SMILES	nsP2pro primary
C=Cc1ccc(Cn2c(C(=O)O)c(CNCc3cc(OC)ccc3OC)c3ccc(C)cc32)cc1	-10%
CC1=C[C@@H](CNC(=O)CCC(=O)O)[C@H](C(C)C)C[C@H]1Cc1nc2ccncc2[nH]1	-2%[39.2 µM]

Carrying on.
SMILES | nsP2pro primary
Cc1ccc(NC(=O)Cn2cc(S(=O)(=O)c3ccc(F)cc3)c(=O)c3cc4c(cc32)OCO4)cc1 | -8%
COc1ccccc1CNC(=O)c1ccc2nc(-c3ccccc3)c(-c3ccccc3)nc2c1 | -7%
COCCN(C)C[C@@H]1CN(C(=O)Cn2ncc3ccccc3c2=O)C[C@@H]1CO | 4%
C[C@H]1CN(C(=O)CCCc2ccccc2)C[C@@H]1c1nc(-c2ccccc2)no1 | i
COc1ccc(NC(=O)CNS(=O)(=O)c2cccs2)c(OC)c1 | -16%
Clc1ccc(CSc2nc3ncc(Br)cc3[nH]2)cc1Cl | 5%
COc1nccnc1NC1CCN(C(=O)c2cccc(C)c2)CC1 | -3%
CCOc1ccc(CC(=O)NCCc2csc(-c3ccc(C(F)(F)F)cc3)n2)cc1 | -17%
Cc1nn2c(-c3ccco3)ccnc2c1-c1ccc(Cl)cc1 | -19%
NC1CCCCN(c2c(F)cc3c(=O)c(C(=O)O)cn(C4CC4)c3c2Cl)C1 (configuration not stated) | -3%[10 µM]
CC(=O)Nc1ccc(S(=O)(=O)Nc2ccc(C)c(C)c2)cc1 | i
N#Cc1cccc(CN[C@H]2[C@H](O)[C@H](O)C[C@@H]2c2cccnc2)c1 | 3%[39.2 µM]
COc1cccc(-n2c(SCC(=O)c3ccc(Cl)cc3)nc3c([nH]c4ccccc43)c2=O)c1 | -21%
Cc1ccc(CNC(=O)c2nc(SCc3ccc(F)cc3)ncc2Cl)cc1 | -3%
CCCCOc1c(C(=O)c2c(F)cc(C)cc2F)cnc2n[nH]cc12 | -17%
Cc1nn2c(=O)cc(COC(=O)c3cccc(NC(=O)CCc4ccccc4)c3)nc2s1 | -9%
CCCCCCCCCCCCCCCCn1cc[n+](Cc2ccccc2)c1C | 136%[activator]
N=c1c2c(ccn1-c1ccccc1)Oc1ccc3ccccc3c1C2c1ccccc1 (configuration not stated) | -17%
CO[C@@H]1[C@@H](O[C@@H]2O[C@H](C)[C@@H](O[C@H]3C[C@@](C)(O)[C@H](O)[C@H](C)O3)[C@H](N(C)C)[C@H]2O)[C@@H](CC=O)C[C@@H](C)[C@@H](O[C@H]2CC[C@H](N(C)C)[C@@H](C)O2)/C=C/C=C/C[C@H](C)OC(=O)C[C@H]1O | 2%
NC(=O)C1CCN(C(=O)[C@H]2C[C@@H](O)[C@H](O)[C@@H]3N=C(Nc4cccc(C(F)(F)F)c4)S[C@@H]32)CC1 | 0%
COc1cc(OC)cc(-c2csc(N3CCC(C(N)=O)CC3)n2)c1 | 1%
CCc1cccc(C)c1NC(=O)Cn1cc2c(n1)CCCCC2 | -8%
NC[C@H](O)c1ccc(O)c(O)c1 | ?
CC1(C)S[C@@H]2[C@@H](N3C(=O)[C@@H](c4ccccc4)NC3(C)C)C(=O)N2[C@H]1C(=O)O | -8%
O=C(NC1CCCN(c2cc(-c3ccc(F)cc3)[nH]n2)C1)c1cnccn1 (configuration not stated) | 0%

Six entries picked at random from the list so far:
SMILES | nsP2pro primary
CC(=O)Nc1ccc(S(=O)(=O)Nc2ccc(C)c(C)c2)cc1 | i
COc1ccc(NC(=O)CNS(=O)(=O)c2cccs2)c(OC)c1 | -16%
CCc1cccc(C)c1NC(=O)Cn1cc2c(n1)CCCCC2 | -8%
C[C@H]1CN(C(=O)CCCc2ccccc2)C[C@@H]1c1nc(-c2ccccc2)no1 | i
CCOc1ccc(CC(=O)NCCc2csc(-c3ccc(C(F)(F)F)cc3)n2)cc1 | -17%
Cc1nn2c(-c3ccco3)ccnc2c1-c1ccc(Cl)cc1 | -19%

Of the compounds above, these have two or more sulfur atoms.
SMILES | nsP2pro primary
CCCOc1ccc(CN(C(=O)c2nc(SC(C)C)ncc2Cl)C2CCS(=O)(=O)C2)cc1 (configuration not stated) | -18%
Cn1nnnc1Sc1ncnc2scc(-c3ccc4c(c3)OCO4)c12 | i
Cc1sc2ncn(CC(=O)N3CCN(c4ccc(F)cc4)CC3)c(=O)c2c1S(=O)(=O)N1CCN(c2ncccn2)CC1 | -21%
COc1ccc(NC(=O)CNS(=O)(=O)c2cccs2)c(OC)c1 | -16%

(more compounds)
SMILES | nsP2pro primary
CCCc1nc(C(=O)N(C)Cc2cnn(-c3ccccc3C)c2)cs1 | 4%
Cc1nc(-c2ccco2)cc([C@H]2CN3CC[C@H]2C[C@@H]3CNC(=O)NC2CCCCC2)n1 | 8.9µM*
COc1cccc(-c2csc(NC(=O)c3ccncc3NS(=O)(=O)c3ccc(C)cc3)n2)c1 | i
Cc1cc(NC(=O)Nc2cccc(-c3ccncc3)n2)ccc1Br | i
Cc1ccc(NS(=O)(=O)c2cc3c(cc2N(C)C)NC(=O)CC3)cc1C | i
CN(C)c1cnc2c(O)ccc(C(=O)O)c2c1 | i
C[C@@H]1O[C@@H](O[C@H]2[C@H](O)[C@@H](O)[C@H](OC3CCC4(C)C5CCC(C)(C(CO)OC6OC(CO)C(O)C(O)C6O)CC5=CCC4C3(C)C)O[C@@H]2CO)[C@H](O)[C@H](O)[C@H]1O (some centres not stated) | -2%[10 µM]
CNc1oc(-c2ccc3c(c2)OCCO3)nc1C#N | 0%
COc1ccc(N2CCN(C(=O)c3cc(NS(=O)(=O)c4ccc(F)cc4)ccn3)CC2)cc1 | -15%
CC(C)CCCC(=O)N1C[C@@H](C(=O)O)C[C@@H](C(=O)NCc2ccncc2)C1 | -2%
O=C(c1ccsc1)N1CCC2(CCC2N2CCOCC2)CC1 (configuration not stated) | i
COc1ccc(CCNC(=O)c2c(-c3ccccc3)cc(=O)n3c2CCC3)cc1OC | -12%
Cc1cccc(-c2noc(CN(C(=O)c3ccc(C)c(C)c3)C(C)C)n2)c1 | -16%
CCSc1ncc(Cl)c(C(=O)Nc2ccc(S(=O)(=O)N(C)c3ccccc3)cc2)n1 | -12%
CC(C)c1noc([C@@H]2C[C@H](NS(=O)(=O)c3ccccc3)CN2C)n1 | -16%[39.2 µM]
COc1ccc(CCNC(=O)c2csc3c2CCCCC3)c(OC)c1 | -23%
COc1ccc2c(c1)CCN=C2C[C@H]1CN(C(=O)c2ccc(F)cc2)CC[C@H]1CC(=O)O | -4%[39.2 µM]
COc1ccc(NC(=O)N[C@H]2C[C@@H](c3nc(-c4ccncc4)no3)N(C)C2)cc1 | -3%[39.2 µM]
Cc1ccc(C(=O)c2cn(Cc3cccc(F)c3)c3nc(C)ccc3c2=O)cc1 | -9%
CN(C)c1cccc(-c2cnc(N3CCC(C(N)=O)CC3)s2)c1 | -1%
O=C(Nc1ccc(F)cc1)c1cc2cccnn2n1 | i
COCCN1C(=O)C(CC(=O)O)=C2CCCCC21 (configuration not stated) | i
CCOC(=O)C1CCN(C(=O)c2cc3ccc4ccc(C)[nH]c4c3n2)CC1 | ?
Cc1cc(C)c(C#N)c(N2CCC3(CCC(=O)N(CC(C)O)C3)CC2)n1 (configuration not stated) | 5%
CSCC[C@H](C=O)NC(=O)[C@H](CC(C)C)NC(=O)[C@H](CC(C)C)NC(C)=O | -6%
COc1ccc(NC(=O)c2cc(S(=O)(=O)N3CCOCC3)cn2C)cc1Cl | -13%
Cn1nccc1C(=O)N1CCC(Cc2nc(C3CC3)n[nH]2)C1 (configuration not stated) | i
CCCN(C(=O)C1CCN(S(=O)(=O)c2c(C)noc2/C=C/c2ccc(C)cc2)CC1)c1ccccc1F | -16%
C=C(C)C(=O)O[C@H]1CC2=CC(C/C(C)=C\[C@H]3OC(=O)C(=C)[C@H]13)OC2=O (some centres not stated) | ?

Not all compounds are listed; the hit share may differ from the screen's.
